# MIN6 prolif = inducers of beta-cell replication in MIN6 cells; MIN6 cells proliferation, ATPlite luminescence, 48 h; cells starved in 0.2% serum; 100% = growth in 10% serum; proliferation, % at 10 µM; 330,000 compounds, 0.29% hits; AID 2380;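 active means compounds whose signal lies at least 3.5 SD above the mean of all wells on their plate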;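 further: 0% = DMSO-treated cells in low-serum medium and 100% = 10% serum control; some compounds called inactive have numbers as strong as hits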
# hIAP inh = human IAP inhibition | P09923 | purified IAP, CDP-Star luminescence, 30 min | inhibition, % at 10 µM | 330,000 compounds, 0.12% hits | AID 2544;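 active means inhibition reaching a set limit with compound at 10 µM in the primary screen, cut at about 35% in these data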;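 further: plate controls were DMSO wells with enzyme for no effect and no-enzyme buffer wells for full effect; values of inactives mirror those of a sister screen read the other way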
# A3A deaminase = human APOBEC3A DNA deaminase inhibition; P31941; recombinant A3A, FAM/TAMRA ssDNA deamination fluorescence; inhibition, % at 20 µM; 330,000 compounds, 0.41% hits;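 active means at least 40% inhibition at 20 µM here, with at most 30% in a related deaminase screen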;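 further: plate controls were A3A with DMSO for no effect and wells lacking A3A enzyme for full effect; some results filed as inactive read as strong as hits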
# Target sequence (P31941 whole entry, looked up): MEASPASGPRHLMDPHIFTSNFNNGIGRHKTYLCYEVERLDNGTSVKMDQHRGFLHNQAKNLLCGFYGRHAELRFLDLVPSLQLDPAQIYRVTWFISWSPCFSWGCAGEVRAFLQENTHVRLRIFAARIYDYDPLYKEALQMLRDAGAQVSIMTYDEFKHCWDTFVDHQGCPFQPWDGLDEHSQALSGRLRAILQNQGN
# hIAP activ = human IAP activation. activation factor at 10 µM. P09923. AID 2524. purified human IAP, CDP-Star luminescence, 30 min; stronger effect = higher value; 1 = vehicle-only enzyme, 0 = enzyme-free background. 330,000 compounds, 0.16% hits;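 active means activation factor of the enzyme at least 2-fold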; further: the source names both 10 and 20 µM as test concentration; values of inactives mirror those of a sister screen read the other way
# APOBEC3G inh = APOBEC3G (human) deaminase inhibition | recombinant A3G, ssDNA deamination FAM/TAMRA fluorescence | Q9HC16 | inhibition, % at 20 µM | 330,000 compounds, 0.28% hits;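 active means inhibition of at least 40% at 20 µM, with no more than 30% in the related APOBEC3A deaminase screen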;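 further: plate controls were DMSO wells with A3G for no effect and wells lacking A3G enzyme for full effect; some compounds called inactive have numbers as strong as hits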
# Starred values were filed as active, the others as inactive; & = joins results of further samples. These rows are one share of the data; rates above refer to the full screens.
# Screens by letter: A = MIN6 prolif; B = hIAP inh; C = A3A deaminase; D = hIAP activ; E = APOBEC3G inh
[1] COc1ccc(S(=O)(=O)n2c(C)nc3ccccc32)cc1C
  A: -1 | B: 7 | C: 0 | D: 0.93 | E: -3

[2] COc1ccc2cc(C(C)C(=O)O)ccc2c1 (stereo not given)
  A: -3 | B: 2 | C: -2 | D: 0.98 | E: -3

[3] COc1cc(C(=O)Nn2c(O)c(C3=c4ccccc4=NC3=O)sc2=S)ccc1O
  A: 1 | B: -36 | C: -3 | D: 1.4 | E: -6

[4] Cc1cc(/C=C\c2ccc3cc(N(C)C)ccc3[n+]2C)c(C)n1-c1ccccc1
  A: -8 | B: 29 | C: 2 | D: 0.71 | E: 5

[5] O=C1NC[C@H](c2ccccc2)OC(=O)[C@@H](Cc2ccc(F)cc2)CC/C=C/C[C@@H]1CC(=O)N(CCO)Cc1ccccc1
  A: -5 | B: -9 | C: 4 | D: 1.1 | E: -4

[6] O=C1NN(c2ccccc2)C(=O)/C1=C/c1ccc(Sc2ccc(Cl)cc2)o1
  A: -6 | B: 17 | C: 2 | D: 0.83 | E: -2

[7] CC(=O)CC(c1ccccc1)c1c(O)c2ccccc2oc1=O (stereo not given)
  A: -3&2 | B: -11&12 | C: -1&0&3 | D: 1.1&0.88 | E: -7&3&-3

[8] Nc1ccn([C@H]2CS[C@@H](CO)O2)c(=O)n1
  A: 2 | B: 15 | C: -3 | D: 0.85 | E: -9

[9] O=C(N/N=C\c1ccc(Sc2ccccn2)o1)c1cccc(F)c1
  A: -3 | B: 1 | C: 2 | D: 0.99 | E: 0

[10] CC(C)n1c(/C=C/[C@@H](O)C[C@@H](O)CC(=O)O)c(-c2ccc(F)cc2)c2ccccc21
  A: -6 | B: 10 | C: -1 | D: 0.9 | E: -1

[11] O=C1OCCN1/N=C/c1ccc([N+](=O)[O-])o1
  A: -2 | B: -5 | C: 0 | D: 1.1 | E: -7

# An excerpt from above in order of number of heavy atoms, ascending:
# Screens by letter: A = MIN6 prolif; B = hIAP inh; C = A3A deaminase; D = hIAP activ; E = APOBEC3G inh
[8] Nc1ccn([C@H]2CS[C@@H](CO)O2)c(=O)n1
  A: 2 | B: 15 | C: -3 | D: 0.85 | E: -9

[11] O=C1OCCN1/N=C/c1ccc([N+](=O)[O-])o1
  A: -2 | B: -5 | C: 0 | D: 1.1 | E: -7

[7] CC(=O)CC(c1ccccc1)c1c(O)c2ccccc2oc1=O (stereo not given)
  A: -3&2 | B: -11&12 | C: -1&0&3 | D: 1.1&0.88 | E: -7&3&-3

[4] Cc1cc(/C=C\c2ccc3cc(N(C)C)ccc3[n+]2C)c(C)n1-c1ccccc1
  A: -8 | B: 29 | C: 2 | D: 0.71 | E: 5

[5] O=C1NC[C@H](c2ccccc2)OC(=O)[C@@H](Cc2ccc(F)cc2)CC/C=C/C[C@@H]1CC(=O)N(CCO)Cc1ccccc1
  A: -5 | B: -9 | C: 4 | D: 1.1 | E: -4

# Some values from the results shown:
# For A3A deaminase, compound 6 has the entry 2
# For A3A deaminase, compound 9 has the entry 2

# High-throughput results (PubChem)
